Screening data from PubChem.
GLP1R ag = qHTS of GLP-1 Receptor Agonists; AID 624172, 2012; Potency, µM (doses to about 45.6 µM), for the others: at the top dose activation, hits mostly activators; HEK293 GLP-1R CRE-luciferase, luminescence, 4-6 h; cells express a hypersensitive GLP-1R form; actives 0.007% (n = 380,000); note: potency is the fitted concentration of half-maximal effect; % of control where 0% means no effect
IL-2 act = qHTS of IL-2 Activators | actives 0.065% (n = 360,000) | AID 652025, 2013 | activation, % (series mostly up to about 46 µM) | IL-2 activation reporter assay, cell-based qHTS; stimulated with anti-CD3/CD4/CD28 beads; in transgenic mouse T cells; in the data active = activation above about 50%; inconclusive = mostly about 30% to 49%; note: 0% is about no effect
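Unstimulated transgenic mouse T cells, 750 per well, received compound and, after 60 minutes, anti-CD3/anti-CD4 bead plus anti-CD28 stimulation. EGFP and DsRed were quantified after 18 hours.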
GLP-1R inv ag = qHTS of GLP-1 Receptor Inverse Agonists (Inhibition Mode); Glucagon-like peptide 1 receptor (Homo sapiens), P43220; HEK293 GLP-1R CRE-luciferase, luminescence, 24 h; GLP-1R form is constitutively active; Potency, µM (highest dose often 38.3 µM), for inactives: at the top dose activity change, negative = inhibition, hits mostly inhibitors; actives 1.6% (n = 410,000); AID 624417, 2012; note: potency is the fitted concentration of half-maximal effect; % is set by controls: 0 for no effect and ±100 for the full control effect; nearly all actives have a fitted effect of over 55% in size
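Stable HEK293 clone (constitutively active GLP-1R + cAMP-response luciferase); 200 cells/uL plated, 12 h pre-culture, compound 24 hr, 37 deg C/5% CO2; detection reagent 12 min RT; luminescence.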
PI5P4Ka inh = qHTS for Inhibitors of phosphatidylinositol 5-phosphate 4-kinase (PI5P4K); Phosphatidylinositol 5-phosphate 4-kinase type-2 alpha (Homo sapiens), P48426; PI5P4Kalpha enzyme, ADP-Glo luminescence, 60 min; stronger effect = lower value; max response, %; actives 1.2% (n = 330,000); active = max response of -50% or lower; inconclusive = between -30% and -50%; inactive = -30% or higher; note: value at the top dose of about 77 µM; % is set by controls: 0 for no effect and ±100 for the full control effect
Target sequence (P48426 whole entry, looked up): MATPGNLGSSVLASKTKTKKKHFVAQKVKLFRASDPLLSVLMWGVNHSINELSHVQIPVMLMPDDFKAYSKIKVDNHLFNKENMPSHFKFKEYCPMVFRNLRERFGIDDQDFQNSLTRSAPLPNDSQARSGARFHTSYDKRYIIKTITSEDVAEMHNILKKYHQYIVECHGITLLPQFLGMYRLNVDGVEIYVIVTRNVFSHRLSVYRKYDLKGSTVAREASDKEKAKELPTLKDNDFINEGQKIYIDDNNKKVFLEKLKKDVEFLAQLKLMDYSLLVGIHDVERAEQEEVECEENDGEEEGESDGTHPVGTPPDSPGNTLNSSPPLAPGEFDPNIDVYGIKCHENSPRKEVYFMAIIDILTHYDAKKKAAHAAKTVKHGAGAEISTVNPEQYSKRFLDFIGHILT
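Enzyme plus substrate dispensed, test compounds pinned in, then ATP (5 microM final) added. After 60 min at RT, ADP-Glo reagent 1 for 45 min and reagent 2 for 30 min preceded luminescence imaging.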
HEK293 tox = qHTS of GLP-1 Receptor Inverse Agonists: Cytotox Screen; HEK293 cAMP-luciferase reporter cells, luminescence, 24 h; Potency, µM (highest dose often 38.3 µM), for the others: top-dose activity change, negative = inhibition, usual class: inhibitors; actives 0.13% (n = 410,000);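 note: loss of luciferase light is scored as toxicity; potency is the fitted concentration of half-maximal effect; % is set by controls: 0 for no effect and ±100 for the full control effect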
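Here, cytotoxicity is scored as loss of luminescence. The MLSMR collection was tested on cells seeded in medium containing 10% Nu serum, with a 24 hr compound exposure preceded by 12 hours of culture.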
* marks the source's active call; other numbers are inactive results; ? = inconclusive; . = no result given; & = joins results of further samples; [ ] = another dose, or the depositor's remark. Unless noted, calls come from the whole dose curve; as a rule, active = well fitted curve in the direction sought with a large enough effect; inconclusive = small, poorly fitted or top-dose-only effect, or another doubt; inactive = no such curve, though single readings can be large; an effect the other way counts as inactive or inconclusive. The list is partial (hit frequency here may not be typical).

| nr | structure | HEK293 tox | GLP1R ag | PI5P4Ka inh |
| --- | --- | --- | --- | --- |
| 1 | COc1ccc(CN2CCN(C(=O)COc3ccc4ccccc4c3)CC2)c(OC)c1 | -3.7% | -1.0% | 8.6 |
| 2 | CC(=O)[C@H]1CC[C@H]2[C@@H]3CCC4=CC(=O)CC[C@]4(C)[C@H]3CC[C@]12C | -10.7%&10.0% | -1.3%&-0.6%&-5.4% | -3.3&2.2 |
| 3 | CCCN(CCC)[C@@H]1CCc2cccc(O)c2C1 | -10.4% | -1.5% | -3.8 |
| 4 | CC12CCC(=O)C=C1CCC1C2CCC2(C)C(O)CCC12 (stereo not drawn) | 5.3% | 5.4% | -6.9 |
| 5 | O=C(COc1ccc2ccccc2c1)N1CCN(Cc2ccncc2)CC1 | -4.7% | 10.7% | -9.2 |
| 6 | O=C(CO)C(O)C(O)C(O)CO (stereo not drawn) | -2.3% | 2.5%&-0.5% | ? |
| 7 | COc1ccc(C(=O)N2CCCC2=O)cc1 | -7.4% | 27.6%&7.9% | 2.1 |
| 8 | C[C@]12CCC3C(CC[C@H]4C[C@@H](O)CC[C@]34C)[C@H]1C=CC2=O (stereo partly drawn) | -9.2% | 3.5% | 4.5 |

| nr | IL-2 act | GLP-1R inv ag |
| --- | --- | --- |
| 1 | 0.0 | 10µM* |
| 2 | -0.7&-0.2 | ? |
| 3 | 0.4 | -16.5% |
| 4 | -3.0 | 20.9% |
| 5 | -2.5 | -20.5% |
| 6 | 0.4 | -1.8% |
| 7 | -0.1 | 7.2% |
| 8 | 2.4 | 61.2%[activator] |

Remaining list, next part
| nr | structure | HEK293 tox | GLP1R ag | PI5P4Ka inh |
| --- | --- | --- | --- | --- |
| 9 | [Cl][Pt+2][Cl].[NH-]C1CCCCC1[NH-] (stereo not drawn) | -1.7% | -0.7% | ? |
| 10 | CNCC[C@@H](Oc1ccc(C(F)(F)F)cc1)c1ccccc1 | 2.2% | 20.7% | -4.7 |
| 11 | COC[C@H]1OC(=O)c2coc3c2[C@@]1(C)C1=C(C3=O)[C@@H]2CCC(=O)[C@@]2(C)C[C@H]1OC(C)=O | 9.1% | -2.0% | ? |
| 12 | CC(=O)N1CCN(c2ccc(OC[C@H]3CO[C@](Cn4ccnc4)(c4ccc(Cl)cc4Cl)O3)cc2)CC1 | -9.7% | 2.5% | 0.8 |
| 13 | OCCN1CCN(CCCN2c3ccccc3Sc3ccc(C(F)(F)F)cc32)CC1 | ? | 0.7%&-5.8% | -7.0 |
| 14 | CC(C)n1c(/C=C/[C@@H](O)C[C@@H](O)CC(=O)O)c(-c2ccc(F)cc2)c2ccccc21 | -8.9% | 4.0% | 3.4 |
| 15 | N[C@H]1C[C@H]1c1ccccc1 | . | 2.0% | . |
| 16 | CN(C)C(=O)C(CCN1CCC(O)(c2ccc(Cl)cc2)CC1)(c1ccccc1)c1ccccc1 | -28.5% | . | 4.3 |

| nr | IL-2 act | GLP-1R inv ag |
| --- | --- | --- |
| 9 | 0.9 | -21.4% |
| 10 | -0.3 | 0.1% |
| 11 | -7.6 | 14.2% |
| 12 | 0.4 | ? |
| 13 | -0.8 | ? |
| 14 | -0.3 | ? |
| 15 | . | . |
| 16 | -0.1 | ? |

Further compounds:
| nr | structure | HEK293 tox | GLP1R ag | PI5P4Ka inh |
| --- | --- | --- | --- | --- |
| 17 | CNCCC(Oc1ccc(C(F)(F)F)cc1)c1ccccc1 (stereo not drawn) | -10.7% | 30.5%&-4.2% | 8.3 |
| 18 | Nc1c(Br)cc(Br)cc1CNC1CCC(O)CC1 (stereo not drawn) | 3.7%&6.0% | 15.7%&9.9%&14.0% | 8.3&21.7 |
| 19 | CN(C)C1C(=O)C(C(N)=O)=C(O)C2(O)C(=O)C3=C(O)c4c(O)cccc4C(C)(O)C3CC12 (stereo not drawn) | 1.1% | -4.0% | -9.1 |
| 20 | CC1CCC2[C@@H](C)C(=O)OC3O[C@]4(C)CCC1C32OO4 (stereo partly drawn) | -8.1% | -0.9% | 3.0 |
| 21 | O=c1[nH]c2ccccc2n1CCCN1CCC(n2c(=O)[nH]c3cc(Cl)ccc32)CC1 | -3.4% | 4.9%&-6.0% | 2.7 |

| nr | IL-2 act | GLP-1R inv ag |
| --- | --- | --- |
| 17 | -0.3 | ? |
| 18 | 0.2&0.1 | ? |
| 19 | 0.6 | -7.6% |
| 20 | 0.0 | -24.1% |
| 21 | -0.3 | 3.5% |

Reprinted: compounds 1 to 11
| nr | structure | HEK293 tox | GLP1R ag | PI5P4Ka inh |
| --- | --- | --- | --- | --- |
| 1 | COc1ccc(CN2CCN(C(=O)COc3ccc4ccccc4c3)CC2)c(OC)c1 | -3.7% | -1.0% | 8.6 |
| 2 | CC(=O)[C@H]1CC[C@H]2[C@@H]3CCC4=CC(=O)CC[C@]4(C)[C@H]3CC[C@]12C | -10.7%&10.0% | -1.3%&-0.6%&-5.4% | -3.3&2.2 |
| 3 | CCCN(CCC)[C@@H]1CCc2cccc(O)c2C1 | -10.4% | -1.5% | -3.8 |
| 4 | CC12CCC(=O)C=C1CCC1C2CCC2(C)C(O)CCC12 (stereo not drawn) | 5.3% | 5.4% | -6.9 |
| 5 | O=C(COc1ccc2ccccc2c1)N1CCN(Cc2ccncc2)CC1 | -4.7% | 10.7% | -9.2 |
| 6 | O=C(CO)C(O)C(O)C(O)CO (stereo not drawn) | -2.3% | 2.5%&-0.5% | ? |
| 7 | COc1ccc(C(=O)N2CCCC2=O)cc1 | -7.4% | 27.6%&7.9% | 2.1 |
| 8 | C[C@]12CCC3C(CC[C@H]4C[C@@H](O)CC[C@]34C)[C@H]1C=CC2=O (stereo partly drawn) | -9.2% | 3.5% | 4.5 |
| 9 | [Cl][Pt+2][Cl].[NH-]C1CCCCC1[NH-] (stereo not drawn) | -1.7% | -0.7% | ? |
| 10 | CNCC[C@@H](Oc1ccc(C(F)(F)F)cc1)c1ccccc1 | 2.2% | 20.7% | -4.7 |

| nr | IL-2 act | GLP-1R inv ag |
| --- | --- | --- |
| 1 | 0.0 | 10µM* |
| 2 | -0.7&-0.2 | ? |
| 3 | 0.4 | -16.5% |
| 4 | -3.0 | 20.9% |
| 5 | -2.5 | -20.5% |
| 6 | 0.4 | -1.8% |
| 7 | -0.1 | 7.2% |
| 8 | 2.4 | 61.2%[activator] |
| 9 | 0.9 | -21.4% |
| 10 | -0.3 | 0.1% |

| nr | structure | HEK293 tox | GLP1R ag | PI5P4Ka inh |
| --- | --- | --- | --- | --- |
| 11 | COC[C@H]1OC(=O)c2coc3c2[C@@]1(C)C1=C(C3=O)[C@@H]2CCC(=O)[C@@]2(C)C[C@H]1OC(C)=O | 9.1% | -2.0% | ? |

| nr | IL-2 act | GLP-1R inv ag |
| --- | --- | --- |
| 11 | -7.6 | 14.2% |
